Screening results as filed in PubChem.
gsp agonist – gsp mutant agonism; AID 624287; gsp mutant cells, cAMP HTRF, 30 min; control for the full effect not named in the record; Potency, µM (series often up to 76.9 µM), for inactives: at the highest dose activation (cAMP increase), most hits filed as activators; hit rate 0.13% among 340,000; active = well fitted activation curve with a large enough effect; inconclusive = small, poorly fitted or top-dose-only effect, or another doubt; inactive = no such curve, though single readings can be large or run the other way; cell line not stated here;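 also: phosphodiesterase inhibitor Ro 20-1724 added with compounds to block cAMP breakdown; potency is read from the fitted curve at half-maximal effect; nearly all actives have a fitted effect of over 60% in size; about a fifth of the inactives were tested at one dose only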
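Cells in DMEM/10% FBS with G418 were pretreated with compounds in DMSO plus […] (300 uM stock) for 30 min at 37C. cAMP was measured by HTRF (cAMP-d2 plus anti-cAMP antibody-K) after 30 min at room temperature.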
gsp antagonist – gsp mutant antagonism; gsp-mutant cells, cAMP HTRF, 30 min; control for the full effect not named in the record; Potency, µM (series often up to 76.9 µM), inactives show at the top dose activity change, negative = inhibition, actives largely listed as inhibitors; hit rate 0.4% among 340,000; AID 624288; active = falling curve of any shape with a large fitted effect; inconclusive = falling curve, mostly with a smaller effect; inactive = flat or rising curve; cell line not stated here;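 also: intracellular cAMP measured with PDE inhibitor Ro 20-1724 present during compound exposure; potency is read from the fitted curve at half-maximal effect; % is scaled to controls: 0 for no effect and ±100 for the full control effect; nearly all actives have a fitted effect of over 65% in size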
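G418-selected cells were plated in DMEM/10% FBS for 16-24 h at 37C, then treated with compounds plus the PDE inhibitor […] (300 uM solution added) for 30 min at 37C. Intracellular cAMP was measured by HTRF after 30 min lysis at room temperature.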
TRPML1 agonist – activates the human TRPML1 channel; TRPML1-expressing cells, Ca2+ dye fluorescence, FDSS; host cell line not named in the record; reference of the full effect not given here; activation, % (test concentration not listed); hit rate 0.12% among 410,000; in the data active = activation above about 50%; inconclusive = about 30% to 50%; inactive = below about 30%; also: 0% is about no effect; the text of the record puts the active cut at 80%
Target sequence (Q9GZU1 whole entry, looked up): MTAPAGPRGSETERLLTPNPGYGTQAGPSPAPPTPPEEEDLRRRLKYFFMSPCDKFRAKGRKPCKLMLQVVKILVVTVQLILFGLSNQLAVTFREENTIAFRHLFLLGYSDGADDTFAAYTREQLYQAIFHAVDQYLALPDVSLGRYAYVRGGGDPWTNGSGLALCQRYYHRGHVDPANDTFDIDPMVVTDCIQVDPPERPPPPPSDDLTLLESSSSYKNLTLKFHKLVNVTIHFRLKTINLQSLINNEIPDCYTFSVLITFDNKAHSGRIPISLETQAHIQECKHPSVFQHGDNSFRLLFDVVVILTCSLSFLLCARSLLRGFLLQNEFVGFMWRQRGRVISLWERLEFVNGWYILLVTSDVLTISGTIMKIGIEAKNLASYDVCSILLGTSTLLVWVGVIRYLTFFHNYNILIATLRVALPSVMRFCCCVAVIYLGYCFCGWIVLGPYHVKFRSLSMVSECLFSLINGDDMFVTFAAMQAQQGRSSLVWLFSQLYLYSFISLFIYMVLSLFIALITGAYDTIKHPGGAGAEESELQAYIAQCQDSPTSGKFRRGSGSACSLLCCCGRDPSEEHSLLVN
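In this qHTS format, compounds were pin-transferred onto Ca8-dye-loaded TRPML1-DL cells induced with Tet overnight, and intracellular Ca2+ fluorescence was recorded kinetically for 110 s after a 10 s baseline. A subsequent 4uM final 54-4 (EC80) addition followed by a second 110 s read served as the antagonist phase.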
ClpP mod – qHTS Assay for Activators of ClpP. Potency, µM (top dose mostly 57.5 µM), for the others: at the highest dose activity change, negative = active. AID 651965, 2013. purified B. subtilis ClpP, FRET peptide cleavage, 20 min. hit rate 1.9% among 340,000; active = well fitted falling curve with a large enough effect; inconclusive = small, poorly fitted or top-dose-only effect; inactive = no such curve, though single readings can be large or run the other way; also: potency is read from the fitted curve at half-maximal effect; the source files actives as falling curves though it sought activators and does not explain the sign; nearly all actives have a fitted effect of over 65% in size; many hits overshoot -100%
Target sequence (P80244 whole entry, looked up): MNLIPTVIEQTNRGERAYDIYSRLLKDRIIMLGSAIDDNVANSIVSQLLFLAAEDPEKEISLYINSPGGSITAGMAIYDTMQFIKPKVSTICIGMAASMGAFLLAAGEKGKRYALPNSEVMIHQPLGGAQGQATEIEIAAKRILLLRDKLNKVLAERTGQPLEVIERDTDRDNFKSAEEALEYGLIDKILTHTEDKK
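Buffer: 100 mM Tris/HCl pH8, 100 mM KCl, 0.05% low protease BSA, 2.5% glycerol, 0.01% Tween-20. ClpP 10 microg/mL final; 20 min RT; delta FRET normalized to ADEP and DMSO controls.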
Menin MLL FP FL – menin-MLL binding inhibition, fluorescein peptide | Fluorescence polarization, fluorescein-MLL peptide displacement from menin | FP activity change, % at 61.4 µM | 290,000 tested, under 10 active | AID 1766; inconclusive = falling polarisation curve, or a change in total fluorescence; inactive = total fluorescence flat and polarisation flat or rising; no compound was filed as active; the % refers to the polarisation; negative = inhibition;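 also: % of control where 0% means no effect; inhibitors lower the polarisation; unlabelled MLL peptide was the positive control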
TRPML1 inh – inhibitors of human TRPML1 channel. Q9GZU1. TRPML1-inducible cells, Ca2+ dye fluorescence, FDSS; active compounds read low; inhibition of EC80 agonist-evoked calcium signal. activity change, negative = inhibition, % (no concentration beside the values). hit rate 0.02% among 390,000. AID 624415; in the data active means activity change below about -50%; inconclusive means about -30% to -50%; inactive means above about -30%;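 also: stimulus is agonist 54-4 at its EC80 concentration; % is scaled to controls: 0 for no effect and ±100 for the full control effect; compound concentration not given in the record; the text of the record puts the active cut at -80%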
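Calcium fluorescence in TRPML1-DL cells induced overnight with Tet: a 110 s read after compound pin addition, then a 110 s antagonist read after challenge with 54-4 at 4 uM final (EC80).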
Starred values were filed as active, the others as inactive; ? = inconclusive; . = no result given; & = joins results of further samples; [ ] = another dose, or the depositor's remark. This is a random part of the collection. Share with any hit: about 2.1%.

SMILES,gsp agonist,gsp antagonist,TRPML1 agonist,ClpP mod,Menin MLL FP FL,TRPML1 inh
COC(=O)C1=C(C)NC2=C(C(=O)CC(C)(C)C2)C1c1ccccn1 (stereo unspecified),7%,2%,0.0,28µM*,1.5,0
CCCCN1CN(Cc2ccccc2)CNC1=S,10%,7%,-0.6,-0.6%,-2.1,-19
CC(C)C[C@H](NC(=O)OC(C)(C)C)C(=O)N[C@@H](CO)[C@H](O)[C@@H]1C[C@@H]1C(=O)N1CCCC1,5%,5%,0.6,1.7%,-1.1,-3
Cc1c(Cl)ccc2c(C(=O)NCCCn3nccc3C)cc(-c3ccccn3)nc12,-36%[inhibitor],-7%,1.2,-9.3%,.,18
CC(=O)OCC1=C(C(=O)O)N2C(=O)C(NC(=O)CCn3nc(C)c(Cl)c3C)C2SC1 (stereo unspecified),16%,7%,0.5,0.9%,3.1,5
Cc1ccc(S(=O)(=O)Cc2ccc(C(=O)NCCc3ccccc3)o2)cc1,2%,-15%,-1.3,-0.4%,-1.6,5
CCN1C(=O)[C@H]2[C@@H](c3ccc(-c4ccc(F)cc4)c(OC)c3)N3CCC[C@@]3(C(=O)OC)[C@H]2C1=O,.,-1%,0.4,3.5%,.,40
CCOC(=O)C1CCN(C(=O)Nc2ccc3snnc3c2)CC1,?,-4%,0.2,-12%,1.9,19
CN(C)CCNC(=O)c1ccc(-c2nn(C)c(=O)c3ccccc23)cc1,0%,7%,2.0&0.4,-5.7%&-7.9%,1.1,1&-18
COc1cc([N+](=O)[O-])cc2sc(NC(=O)c3c(F)cccc3F)nc12,-36%[inhibitor],-7%,0.1,-1.4%,1.9,5
Cc1ccc(NC(=O)c2ncoc2-c2ccco2)cc1Cl,.,.,0.6,39%,.,11
O=[N+]([O-])c1cc(-n2cnnn2)ccc1N1CCC(Cc2ccccc2)CC1,11%,-22%,0.9,-3.0%,-6.1,83
Cc1ccc(-n2c(N)c(-c3nc4ccccc4n3C)sc2=S)cc1,-46%[inhibitor],5%,0.7,6.0%,3.1,10
CN(CCc1ccccn1)C(=O)Nc1ccc(Cl)cc1,-2%,0%,-0.1,-1.1%,0.4,-10
CCn1nnnc1SCC(=O)NCc1ccco1,22%,5%,3.3,-3.9%,-0.2,-19
Cc1ccccc1Cn1ccc(NC(=O)c2onc(C)c2Cl)n1,-22%,10%,-1.2,0.5%,-1.4,3
COC(=O)[C@]1(Cc2ccccc2)N[C@H](c2ccc(-c3cccc(Cl)c3)c(OC)c2)[C@@H]2C(=O)N(C)C(=O)[C@@H]21,-37%[inhibitor],-23%,3.3,4.3%,.,10
COC(=O)Cc1ccc(NC(=O)C(c2ccccc2)c2ccccc2)cc1,19%,-19%,0.9,-6.6%,6.1,22
CC(C)(C)OC(=O)[C@H](CCCCN)NC(=O)c1[nH]cnc1C(=O)N[C@@H](Cc1ccccc1)C(=O)OCc1ccccc1,-27%,3%,0.0,0.3%,.,2
CSc1ccc(CNc2cccc3ccccc23)cc1,-36%,1%,-0.3,28µM*,-0.4,-2
Cc1ccc(N(CC(=O)Nc2cccc(C)c2)S(=O)(=O)c2cccc3nonc23)cc1,6%,?,1.3,2.1%,16,-1
COc1ccc(C(=O)NC(=S)N(C)C2CCCCC2)cc1Br,3%,-17%,0.5,-0.7%,-3.9,9
O=S(=O)(c1ccc(-n2cnnn2)cc1)N1CCNCC1,-8%,3%,-0.4,0.1%,.,0
CC1(C)OC(=O)C(=CNn2cnc3ccccc3c2=O)C(=O)O1,-13%,12%,-0.3,-0.5%,4.5,14
CC(C)[C@H](NC(=O)N1CC(=O)Nc2ccccc21)C(=O)N[C@@H](Cc1c[nH]c2ccccc12)C(=O)O,.,-11%,.,-5.8%,0.4,.

Additional entries:
SMILES,gsp agonist,gsp antagonist,TRPML1 agonist,ClpP mod,Menin MLL FP FL,TRPML1 inh
CSc1ccccc1C(=O)N1CCC2(CC1)CC(=O)c1ccccc1O2,14%,-21%,-0.9,?,.,-7
Cc1onc(-c2ccccc2Cl)c1C(=O)Nc1ccc(CN2CCCC2)cc1,-36%,2%,0.2,-1.9%,2.8,5
CCn1cc(C(=O)NCCCOC(C)C)c(=O)c2cc(S(=O)(=O)N(C)C3CCCCC3)ccc21,.,.,-1.0,-0.3%,.,22
CC(C)(C)c1csc(NC(=O)c2c(F)c(F)c(F)c(F)c2F)n1,-1%,-29%,.,-1.5%,-0.2,.
COc1ccc2nc(N3CCC(O)CC3)c(C#N)cc2c1,10%,7%,5.4,-6.1%,?,-5
COc1cccc(NCc2nnc3n2CCCCC3)c1,.,.,3.0,-0.1%,.,30
COc1ccc([N+](=O)[O-])cc1N(CC(O)CN(CC(C)C)CC(C)C)S(=O)(=O)c1ccccc1 (stereo unspecified),?,-9%,0.5,1.7%,2.2,73
COc1ccc2c(c1)CCc1c-2n[nH]c1C(=O)NCCC(C)C,-5%,?,0.9,-22%,-0.1,19
COc1ccc(NC(=O)N2CCN(c3nc(-c4cccc(OC)c4)cs3)CC2)cc1,2%,?,1.4,-0.5%,3.1,17
Clc1cccc(Nc2nc(N3CCOCC3)nc(N3CCOCC3)n2)c1,35%,-9%,-0.9,1.8%,-5.1,0
C/C(=N\NC(=O)OC(C)(C)C)c1cccc([N+](=O)[O-])c1,9%,8%,0.6,1.2%,0.7,39
COc1ccc(C(C)=O)cc1COc1nc(C)nc2ccccc12,12%[15.4 µM],1%,0.8,.,-3.5,23
CN(C)C(=O)c1ccc2c(c1)N(CC(=O)NCc1ccccc1Cl)C(=O)C1CCCCN21 (stereo unspecified),.,.,-0.8,-6.3%,.,-23
COc1cc(NC(=O)c2cc3c(=O)n(C)c4ccccc4c3n2C)cc(OC)c1OC,7%,12%,3.3,4.0%,-0.6,-19
O=C(Nc1nnc(S(=O)(=O)N2CCCCC2)s1)c1cccc(Br)c1,18%,-25%,0.1,-2.3%,2.7,0
CC(CO)NCC12CC3CC(CC(C3)C1)C2 (stereo unspecified),-7%[15.4 µM],19%,-1.0,-1.2%,-1.1,9
S=C(NCCc1c[nH]c2ccccc12)NC1CC1,-42%[inhibitor],5%,0.4,.,0.9,-9
CCS(=O)(=O)N1CCC(C(=O)NCCC2=CCCCC2)CC1,17%,10%,0.8,-0.2%,-5.8,-5
CCOc1ccc2nc(CN3CCN(Cc4ccsc4)C(CCO)C3)ccc2c1 (stereo unspecified),4%,-7%,0.0,-18%,-3.2,-8
Cc1cccc(OCCn2ccnc2)c1C,-30%,12%,0.2,.,-1.3,11
COC(=O)c1cnc(Oc2ccc(NC(=O)NC(=O)c3ccccc3Cl)cc2)cc1C(F)(F)F,2%[15.4 µM],17%,-0.2,.,5.1,8
Cc1cccc(NC(=S)NC(=O)CCc2ccccc2)c1C,-28%,5%,0.0,-0.6%,1.3,-11
CCN(CC(=O)Nc1ccc(NC(C)=O)cc1)C(=O)c1c(C)nn(Cc2ccc(C)cc2)c1Cl,4%,9%,0.2,-0.5%,.,-3
COc1ccc(Br)cc1/C=N/NC(=O)c1cccnc1,22%,0%,0.1,.,-6.6,-3
Cc1c(C(=O)Nc2ccc(Cl)cn2)oc2ccccc12,-40%[inhibitor],-11%,3.7,-18%,7.9,7

Among those listed so far, these have two or more sulfur atoms:
SMILES,gsp agonist,gsp antagonist,TRPML1 agonist,ClpP mod,Menin MLL FP FL,TRPML1 inh
Cc1ccc(-n2c(N)c(-c3nc4ccccc4n3C)sc2=S)cc1,-46%[inhibitor],5%,0.7,6.0%,3.1,10
O=C(Nc1nnc(S(=O)(=O)N2CCCCC2)s1)c1cccc(Br)c1,18%,-25%,0.1,-2.3%,2.7,0

The list goes on:
SMILES,gsp agonist,gsp antagonist,TRPML1 agonist,ClpP mod,Menin MLL FP FL,TRPML1 inh
COc1ccc(C(C(=O)NC2CCCC2)N(C(=O)c2csnn2)C2CC2)cc1 (stereo unspecified),12%[15.4 µM],.,-0.2,.,3.1,18
Cc1ccc(S(=O)(=O)N2CCN(C(=O)CSc3ccccn3)CC2)c(C)c1,-75%[inhibitor],6%,0.5,-2.5%,.,13
Cc1ccc(C(OCC(O)CN2CCCCC2)c2ccccc2)cc1 (stereo unspecified),18%[15.4 µM],10%,-0.7,.,-3.9,-5
CN(CCC1CCCCO1)C(=O)c1cc(COc2ccc(F)cc2F)on1 (stereo unspecified),-29%,-2%,0.2,-3.6%,1.6,-13
COC(=O)CCC(=O)N1CCCC(C(=O)c2cc(F)ccc2F)C1 (stereo unspecified),-48%[inhibitor],7%,-0.5,.,-3.1,1
CC(=O)c1c(O)c(C)c(O)c2c1OC1=Cc3c(c(C)nn3C)C(=O)C12C (stereo unspecified),4%,.,-0.7,0.1%,.,15
OCC[C@@H]1C[C@H](O)[C@@H](O)[C@@]2(Cc3ccccc3O2)O1,2%,-2%,0.1,0.1%,2.6,-23
CC(=O)c1cc(CC=C(C)C)c(O)c(CC=C(C)C)c1O,?,4%[15.4 µM],0.6,28µM*,-5.7,-21
CC(C)c1ccc(/C=C/C(=O)NCc2ccc(S(N)(=O)=O)cc2)cc1,5%[15.4 µM],.,0.0,.,0.3,5
CCOC(=O)c1c(C)oc2ccc(O)c(CN3CCCCC3)c12,-46%,3%,-0.4,-7.8%,4.2,20
CCC(C)NC(=O)CSc1nc2scc(-c3ccccc3)c2c(=O)[nH]1 (stereo unspecified),1%[15.4 µM],3%,-0.4,-0.2%,1.2,-5
CCCCCCc1cc2cc(C(=O)NCc3ccccc3)c(=N)oc2cc1O,12%,7%,2.0,?,17,-1
CC1(c2ccc(OC(F)F)cc2)NC(=O)N(CC(=O)Nc2ccc(S(N)(=O)=O)cc2)C1=O (stereo unspecified),-14%,2%,0.2,1.1%,1.1,-10
CC1CCN(S(=O)(=O)c2ccc3c(c2)NC(=O)CS3)CC1,-19%,8%,-0.1,-0.2%,3.8,-11
O=C1NC[C@H](c2ccccc2)N(CCc2cccc3ccccc23)C1=O,-9%,4%,-1.2,-0.3%,1.2,26
CCOC(=O)N1CCC(N2CCN(CCC(C)C)C(CCO)C2)CC1 (stereo unspecified),7%,1%,0.4,0.0%,0.2,-12
Cc1nc2ccc(NS(=O)(=O)c3ccc(F)c(C)c3)cc2[nH]1,-40%[inhibitor],-10%,-0.5,1.0%,-1.7,17
COc1ccc(-c2nc3cc(NC(=O)COc4ccccc4C)ccc3o2)cc1,.,.,2.2,4.3%,.,?
CCOC(=O)Cn1nc(C)c(NC(=O)c2ccc([N+](=O)[O-])c(C)c2)c1C,14%,7%,0.0,.,-0.4,15
